Screening results: PubChem BioAssay, several laboratories
PrP 5UTR inh = inhibition of PrP 5' UTR reporter expression; cell-based PrP 5' UTR mRNA reporter, plate reader; inhibition, % (test concentration not listed); 340,000 compounds, 0.35% hits; AID 488862;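 active = every replicate at 50% or more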;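 note: 0 = median of the neutral control wells; tested in H4 reporter cells; numbers are from one replicate; inactives centre near -14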
Sa ugtP lethal = kills S. aureus RN4220 lacking UgtP; S. aureus RN4220 ugtP deletion, OD600 growth, 16 h; some inactives read as strong as hits; growth inhibition, % (no concentration beside the values); 330,000 compounds, 0.54% hits;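 active = z-score under -3 and OD600 up to 0.15 on both plates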;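 note: plate controls were untreated wells for no effect and antibiotic for full effect; wells of about 80 µL received 100 nL stock; the first replicate is given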
RN4220 kill = S. aureus RN4220 growth inhibition. OD600, 16 h. 330,000 compounds, 0.33% hits. inhibition, % (no concentration beside the values);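 active = z-score of -3 or lower and OD600 up to 0.18 on both plates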;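 note: plate controls were untreated cells for no effect and reference antibiotic for full effect; stock transfer was 100 nL into about 80 µL; one replicate is shown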
Mtb hypoxia inh = reduces hypoxia-regulated biosensor signal in M. tuberculosis; M. tuberculosis hypoxia-regulated fluorescent reporter, fluorescence; fluorescence inhibition, % (test concentration not listed); 300,000 compounds, 0.1% hits; AID 1159583;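 active = 35 to 45% if threefold the growth effect, above 45% if 1.5-fold the growth effect; inactive = the rest, general growth blockers included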;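 note: wells of about 50 µL received 100 nL stock; 0% = vehicle wells and 100% = reference inhibitor wells; whole bacteria with a GFP reporter of the hypoxia response; strong numbers were not always called active; many hits fall short of the cut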
BJeLR viability = kills HRASV12-expressing BJeLR cells; BJeLR (HRASV12) viability, CellTiter-Glo ATP luminescence, 48 h; reference of the scale not given here; inhibition, % (test concentration not listed); 300,000 compounds, 0.17% hits;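 active = replicate mean above 50%; inconclusive = above 50% but judged a plate artefact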;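 note: 50 nL library stock added to about 25 µL; numbers are from one replicate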
Autofluor counter = flagged as autofluorescent in microsphere protease counterscreen. AID 624483. compound autofluorescence counterscreen, microsphere flow cytometry; hits give high values. fluorescence intensity (concentration not given with the values). 360,000 compounds, 3.1% hits;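 active = at least 3 SD above the mean of all compounds, about 16000 in these data; inconclusive = too few beads counted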;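 note: 100 nL of 1 mM stock went into each well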
Mtb hypoxia inh growth = further read-out of Mtb hypoxia inh, marked with its call; growth inhibition, %; measured here: M. tuberculosis growth (absorbance);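 0% = vehicle and 100% = reference antibiotic; read after six days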
Active calls of the source: *; ? = inconclusive; · = not tested or not shown; & = joins results of further samples; ! = not confirmed by another sample.

Values in the order: Mtb hypoxia inh	BJeLR viability	Sa ugtP lethal	PrP 5UTR inh	Mtb hypoxia inh growth	Autofluor counter	RN4220 kill
O=C(c1cccc(S(=O)(=O)N2CCCC2)c1)N1CCN(c2ncccn2)CC1
→ -6	-1	2	-16	3	9478	9.1
CN1CCN(C(=O)CNC(=O)Cc2ccc(Cl)cc2)CC1
→ 0	23	6	-20	-2	3248	4.8
Cc1cc(Cl)c(S(=O)(=O)N2CCN(c3ccccc3)CC2)cc1OCC(N)=O
→ 8	-13	6	-2	1	·	3.8
O=C(CN1CCCC1)Nc1ccccc1Cl
→ 7	18	2	-11	18	22970*	1.8
CC(O)CNc1cnccn1 (configuration not stated)
→ -3	-7	1	-15	1	2572	0.3
CCC(Sc1nc2ncccc2[nH]1)C(=O)N1CCOCC1 (configuration not stated)
→ 11	-5	-4	-5	11	6102	-9.6
O=C(N/N=C/c1cn(Cc2cccc(F)c2)c2ccccc12)c1cc(O)cc(O)c1
→ ·	5	·	14	·	4155	·
C=CCNC(=O)/C(C#N)=C/c1ccccc1[N+](=O)[O-]
→ -4	-1	6	-3	1	2486	4.4
Cn1c(=O)n(C)c2cc(NC(=O)COc3ccc(Cl)cc3)ccc21
→ 8	6	16	-25	6	4533	6.6
CC(NC(=O)CCc1nc2cc(S(=O)(=O)N3CCOCC3)ccc2n1C)c1ccc(S(N)(=O)=O)cc1 (configuration not stated)
→ -11	-19	-1	-1	-10	4658	0.0
CCN(CC)Cc1ccccc1Sc1ccccc1
→ 15	-7	6	-10	13	2479	5.4
CCOc1cc(NC(=O)c2cccs2)c(OCC)cc1NC(=O)CCC(=O)NCc1ccccn1
→ 4	-3	4	·	1	·	4.6
Cc1ccccc1C(=O)NC(=S)N(Cc1ccccc1)c1ccccn1
→ 11	·	15	-29	9	?	9.0
C=CCNC(=O)/C(C#N)=C/c1ccc(OS(=O)(=O)c2ccc(C)cc2)c(OC)c1
→ 12	3	-10	-15	7	2022	1.1
CC1(C)CC(=O)C=C(N=CC2=C(O)CC(C)(C)CC2=O)C1
→ ·	-1	13	1	·	4383	4.9
Cc1ccc(S(=O)(=O)Nc2ccncc2)c(C)c1N(C)S(=O)(=O)c1ccc(Cl)cc1
→ -2	12	7	12	-5	2025	1.7
COc1cccc(OC2OC3COC(C)(C)OC3C(O)C2NC(C)=O)c1 (configuration not stated)
→ 12	6	1	15	-3	·	4.0
CC1CCN(S(=O)(=O)c2ccc(C(=O)NCc3cccnc3)cc2)CC1
→ -6	15	4	-23	12	3979	5.6
O=C(COC(=O)Cc1c(F)cccc1Cl)Nc1nnc(-c2ccccc2)o1
→ 5	4	-6	-5	-2	5515	3.7
CN(C)c1cccc(NC2=CC(=[N+]3CCOCC3)CC(C)(C)C2)c1
→ 8	4	3	-20	4	3333	1.3
CC(=NNC(=O)c1c(Br)c(C)nn1C)c1cccc(NC(=O)c2ccccc2F)c1
→ -3	·	-8	·	1	·	5.0
COc1cccc(C2CC(c3cccc(Br)c3)n3nc(N)nc3N2)c1 (configuration not stated)
→ ·	8	1	-6	·	6324	3.8
O=C(Nc1ccc(CN2CCOCC2)cc1)c1ccc(-c2ccc(Cl)cc2Cl)o1
→ 10	11	8	5	12	4699	-12
O=C(CN1c2cccc3cccc(c23)S1(=O)=O)N1CCN(c2ccc(F)cc2)CC1
→ 12	·	2	-20	2	8039	4.4
Cc1cccc(C(=O)NCC(=O)N2CCN(c3ccccn3)CC2)c1
→ 10	·	11	-21	9	6225	1.3
COc1ccc2[nH]cc(CCN3C(=O)CCC3=O)c2c1
→ 11	15	2	-31	12	3311	5.7
CCOc1ccc(OCC)c(NC(=O)C2CCCN(c3ncccn3)C2)c1 (configuration not stated)
→ 9	8	10	·	8	7567	3.2
COCCC(=O)N1CCC(Oc2ccc(C(=O)NCCc3cn[nH]c3)cc2)CC1
→ 7	1	10	-11	6	·	5.1
Cc1cc(Nc2ncc(Cl)cc2Cl)n[nH]1
→ 2	3	-4	-39	12	7937	4.3
C[C@H](CO)N1C[C@H](C)[C@@H](CN(C)C(=O)Nc2ccc(C(F)(F)F)cc2)Oc2ccc(NC(=O)CCC(F)(F)F)cc2C1=O
→ 9	·	-3	-8	9	2995	-13
CCCc1nc2scc(-c3ccc(C)cc3)c2c(=O)n1N
→ ·	3	6	-23	·	3811	1.2
CCCCCC(=O)Nc1cccc(-c2nc3ncccc3o2)c1
→ 5	5	2	2	5	8052	4.6
O=C(CN1C(=O)c2ccccc2C1=O)OC(C(=O)c1ccc(Cl)cc1)c1ccccc1 (configuration not stated)
→ 1	7	5	-35	4	21488*	0.7
Cc1nn(CC(=O)Nc2ccc(N3CCOCC3)cc2)c(C)c1Cl
→ 13	3	6	-12	6	5654	-6.7
Cn1c(CNC(=O)OC(C)(C)C)n[nH]c1=S
→ -6	-1	8	-18	1	3978	0.9
COc1ccc(CNC(=O)c2ccc(CS(=O)c3ccccc3)o2)cc1 (configuration not stated)
→ 1	-11	9	-10	8	5123	1.8
Cc1ccc(C(=O)NC(=S)NCC2CCCO2)cc1Br (configuration not stated)
→ -3	-3	13	-44	4	2303	0.5
COc1ccccc1S(=O)(=O)Cc1ccc(C(=O)NCC(OC)OC)o1
→ -8	3	16	-16	10	2875	6.2
O=C1NC(=O)C(C2CCCCCC2)C(=O)N1
→ 6	·	-3	20	2	2746	0.6
O=C1c2ccsc2SCCN1Cc1ccc(Cl)cc1Cl
→ ·	3	11	-14	·	2089	7.5
CC(=O)Nc1cccc(C(=O)OCC(=O)NC2CCCCCCC2)c1
→ -3	·	-2	-7	4	3622	-0.6
O=C(COC(=O)c1cc([N+](=O)[O-])ccc1NCc1ccccc1)NC1CCCc2ccccc21 (configuration not stated)
→ ·	4	3	-3	·	3338	-0.2
CCNc1nc(=S)nc(NCc2ccccc2)[nH]1
→ 14	-9	0	·	6	·	6.7
O=C(Cn1cc([N+](=O)[O-])ccc1=O)NCC1COc2ccccc2O1 (configuration not stated)
→ 11	·	4	-23	13	3572	3.3
Cc1noc(C)c1COc1ccc(C(=O)OC(C)C(=O)Nc2ccc(S(=O)(=O)N3CCOCC3)cc2)cc1 (configuration not stated)
→ 10	3	2	-26	4	2428	1.4
Cc1cc(C)nc(NC(=O)c2c(-c3ccccc3Cl)noc2C)n1
→ 3	-8	2	-12	0	9517	3.7
COc1ccc(CCC(=O)NCC(c2ccco2)N2CCc3ccccc32)cc1 (configuration not stated)
→ 5	10	10	-5	-2	6007	-2.6
Cc1cccn2c(=O)c3cc(C(=O)N4CCN(Cc5ccccc5)CC4)sc3nc12
→ 10	·	1	6	5	?	2.3
CCC(C)C(NS(=O)(=O)c1ccc(C)cc1)C(=O)NCCCN1CCOCC1 (configuration not stated)
→ 5	0	12	8	-1	3972	5.6
O=C(NC1CCCC1)C(c1ccccc1)N(Cc1ccc(F)cc1)C(=O)c1csnn1 (configuration not stated)
→ ·	-1	·	-5	·	4544	·
O=C1c2ccc(-c3ccc(F)cc3OCc3ccccc3)cc2S(=O)(=O)c2cccc(C(=O)N3CCN(c4ncc(Br)cn4)CC3)c21
→ 13	·	7	-15	14	2937	1.3
O=[N+]([O-])c1ccc(N2CCN(CCOCCO)CC2)c([N+](=O)[O-])c1
→ 9	0	6	-15	15	3081	1.8
CCC1=NC(c2ccccc2Cl)N(O)C1(C)C (configuration not stated)
→ -1	14	-1	-9	0	11769	3.5
COc1ccc(NC(=S)N(CCO)Cc2cc3c(C)cc(C)cc3[nH]c2=O)cc1
→ 10	1	-1	-19	7	4555	4.2
CC1(NC(=O)CCc2nc3ccccc3c(=O)[nH]2)CCS(=O)(=O)C1 (configuration not stated)
→ 9	-22	9	-7	-1	5754	-0.1
CCOC(=O)C1(Cc2cccc(OC)c2)CCN(Cc2ccc(OC)c(O)c2)CC1
→ 9	5	5	-20	-1	4238	0.0
COCc1c(C(=O)N/N=C\c2cccs2)nnn1-c1nonc1N
→ ·	2	·	-22	·	3604	·
COc1ccc(OCc2nnc(SCC(=O)Nc3ccccc3C#N)o2)cc1
→ 8	0	10	-19	3	5640	6.4
CCOc1cc(CNCc2cc(OC)cc(OC)c2)ccc1OC
→ 16	3	13	-8	8	4027	5.2
N=c1sccn1Cc1ccc(Cl)cc1Cl
→ 11	-12	8	-25	-1	10484	2.1

(list continues)
Values in the order: Mtb hypoxia inh	BJeLR viability	Sa ugtP lethal	PrP 5UTR inh	Mtb hypoxia inh growth	Autofluor counter	RN4220 kill
Oc1ccc2c3c1O[C@H]1[C@@H](O)CC[C@@]4(O)[C@@H](C2)N(CC2CCC2)CC[C@]314
→ ·	-3	·	63*!	·	6126&4833	·
CC(NC(=O)c1c(Cl)cnn1C)C1CCCO1 (configuration not stated)
→ 3	1	5	-10	1	4786	10
O=C(COc1ccccc1)NC1CCSC1=O (configuration not stated)
→ 13	-7	1	7	3	3467	3.3
CC(NC(=O)c1ccccc1NC(=O)c1ccco1)C(=O)O (configuration not stated)
→ 9	-15	-5	-23	9	?	6.1
Cc1c(Cl)cccc1NC(=O)CCCn1cnc([N+](=O)[O-])n1
→ 5	6	3	-29	3	4563	-7.9
CCOC(=O)CC(=O)CSc1[nH]c(=O)cc(C)c1C#N
→ ·	-3	6	-19	·	4098	3.7
O=C(Cc1ccccc1)N/N=C/C=C/c1cccc([N+](=O)[O-])c1
→ ·	-3	·	-15	·	3697	·
CCNC(=O)CC1C(=O)N(CC)C(=S)N1NC(=O)c1ccccc1 (configuration not stated)
→ 7	-3	4	·	9	5878	3.4
CC(=O)N1CCN=C1SCc1cccc(C)c1
→ 18	-2	12	-3	-2	4559	3.3
CC(=O)Nc1ccc(NC(=O)CSCCc2ccccn2)cc1
→ 13	7	0	-16	8	19811*	6.5
CCOc1ccc(C(F)(F)F)cc1NC(=O)c1ccc(OC)c([N+](=O)[O-])c1
→ 8	5	0	-18	6	10615	4.5
CCCCc1ccc(/C=C2\C(=O)ON=C2c2ccccc2)s1
→ 7	5	10	-6	2	2433	1.9
Cc1nn(-c2ccccc2)c2sc(C(=O)OCN3C(=O)c4ccccc4C3=O)cc12
→ 8	9	24	·	6	·	28
O=C(NCCN1CCOCC1)c1cccc(S(=O)(=O)N2CCCC2)c1
→ 12	2	12	-6	-11	4302	4.2
c1cnc2c(C3NCCc4c3[nH]c3ccccc43)cccc2c1 (configuration not stated)
→ ·	-2	-2	-12	·	6648	1.4
O=C(O)c1ccccc1-c1ccccc1C(=O)NCc1cccnc1
→ 8	·	5	-14	3	2527	4.3
COc1ccc(/C=N/OCC(=O)N=Nc2c(O)[nH]c3ccc(Br)cc23)cc1
→ ·	-7	·	-27	·	2127	·
O=C(CSc1nc2ccccc2n1S(=O)(=O)c1cccc([N+](=O)[O-])c1)NCCc1ccccc1
→ -1	-1	3	-12	-6	1942	-0.5
Cc1nnc2c(N(C)S(=O)(=O)c3ccccc3)nc3ccccc3n12
→ 2	-6	-1	7	16	5869	0.6
COc1cc(OC)cc(-c2nc3ccccc3c(=O)n2OC(=O)c2ccc(Br)cc2)c1
→ 4	4	-10	5	-6	2062	4.8
O=C(NC1Cc2ccccc2C1)c1cc(COc2cccc(C(F)(F)F)c2)on1
→ -1	-2	14	-15	-3	4592	7.3
CCOC(=O)C1CCN(c2c(NCCCN(CC)Cc3ccccc3)c(=O)c2=O)CC1
→ -3	-2	-5	6	1	11425	1.7
C=CCN1C(=O)OC2(CCCCC2)C1(C)O (configuration not stated)
→ 2	-13	5	-11	12	10126	3.0
COCc1nnc(NC(=O)c2ccco2)s1
→ 4	5	1	-24	18	9183	3.5
CC(C)OC1CCCC(O)C1CC(=O)O (configuration not stated)
→ 9	-11	-2	-6	2	3163	4.4

In the list so far, 3 contain a CF3 group:
Values in the order: Mtb hypoxia inh	BJeLR viability	Sa ugtP lethal	PrP 5UTR inh	Mtb hypoxia inh growth	Autofluor counter	RN4220 kill
C[C@H](CO)N1C[C@H](C)[C@@H](CN(C)C(=O)Nc2ccc(C(F)(F)F)cc2)Oc2ccc(NC(=O)CCC(F)(F)F)cc2C1=O
→ 9	·	-3	-8	9	2995	-13
CCOc1ccc(C(F)(F)F)cc1NC(=O)c1ccc(OC)c([N+](=O)[O-])c1
→ 8	5	0	-18	6	10615	4.5
O=C(NC1Cc2ccccc2C1)c1cc(COc2cccc(C(F)(F)F)c2)on1
→ -1	-2	14	-15	-3	4592	7.3
